Bioassay records deposited in PubChem by National Center for Advancing Translational Sciences (NCATS).
SARS PLpro yeast – SARS-CoV PLP inhibition in yeast. S. cerevisiae expressing SARS-CoV PLpro, growth rescue; control for the full effect not named in the record. Potency, µM (highest dose often 32.9 µM), for inactives: at the highest dose activity, positive = growth rescue. 0.19% of 330,000 active. AID 485353; active means well fitted rising curve with a large enough effect; inconclusive means small, poorly fitted or top-dose-only effect; inactive means no such curve, though single readings can be large or run the other way; also: 0% is about no effect; nearly all actives have a fitted effect of over 55% in size; growth read by luminescence after 48 h
Cruzain Triton – inhibitors of Trypanosoma cruzi cruzain with detergent; P25779; purified cruzain, Z-FR-AMC fluorescence, 0.01% Triton; Potency, µM, without a hit: max response, negative = inhibition, most hits filed as inhibitors; 0.43% of 200,000 active; AID 1478;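 also: plate controls were neutral wells for no effect and buffer without enzyme for full effect; nearly all actives have a fitted effect of over 40% in size; top concentration of the series not given in the record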
Target sequence (P25779 123-467 limits assumed): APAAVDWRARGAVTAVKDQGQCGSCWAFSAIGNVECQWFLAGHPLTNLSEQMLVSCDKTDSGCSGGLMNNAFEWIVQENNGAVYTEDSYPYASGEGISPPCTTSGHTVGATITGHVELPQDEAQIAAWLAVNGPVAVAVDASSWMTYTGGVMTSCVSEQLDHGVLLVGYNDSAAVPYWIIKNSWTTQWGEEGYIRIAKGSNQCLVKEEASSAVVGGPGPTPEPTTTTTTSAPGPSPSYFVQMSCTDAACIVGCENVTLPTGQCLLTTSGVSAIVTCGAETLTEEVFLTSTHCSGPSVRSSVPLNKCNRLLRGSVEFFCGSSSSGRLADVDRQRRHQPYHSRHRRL
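Purified cruzain (1.5 nM final) was preincubated with compounds for 15 min at room temperature in 100 mM sodium acetate pH 5.5, 5 mM DTT, 0.01% Triton X-100. Reaction started with 2 uM Z-FR-AMC; AMC fluorescence change over 60 s gave activity.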
Marburg entry inh – Marburg virus entry inhibition; Marburg virus pseudotyped entry inhibition, cell reporter; control for the full effect not named in the record; about a third of the inactives were read at about 46 µM; Potency, µM (series often up to 37.8 µM), for the others: top-dose activity change, negative = inhibition, most hits filed as inhibitors; 1.8% of 300,000 active; AID 540276; active = well fitted inhibition curve with a large enough effect; inconclusive = small, poorly fitted or top-dose-only effect, or effect the other way; inactive = flat fitted curve, though single readings scatter; tested in HEK293 cells; about a fifth of its hits are not listed in these tables; also: % is scaled to controls: 0 for no effect and ±100 for the full control effect; luciferase read-out
2A StopGo – FMDV 2A StopGo reporter, luciferase signal. human cells with a luciferase reporter of 2A StopGo recoding; control for the full effect not named in the record. Potency, µM (doses to about 57.9 µM), without a hit: top-dose signal change, negative = less light. 1.2% of 410,000 active. AID 1159524; active = well fitted falling curve with a large enough effect; inconclusive = small, poorly fitted or top-dose-only effect; inactive = no such curve, though single readings can be large or run the other way; tested in HEK293T cells; also: % is scaled to controls: 0 for no effect and ±100 for the full control effect; nearly all actives have a fitted effect of over 45% in size; luciferase light after 4 h
RE007 growth inh – less growth of the S. pombe RE007 Vpr strain; S. pombe RE007 Vpr strain, BacTiter-Glo ATP luminescence, 24 h; control for the full effect not named in the record; Potency, µM (doses to about 92.2 µM), without a hit: top-dose activity change, negative = less growth; 0.21% of 360,000 active; AID 651644; active = well fitted falling curve with a large enough effect; inconclusive = small, poorly fitted or top-dose-only effect; inactive = no such curve, though single readings can be large or run the other way;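 also: % is scaled to controls: 0 for no effect and ±100 for the full control effect; nearly all actives have a fitted effect of over 50% in size; the assay follows cell death caused by Vpr and the record does not say whether a fall means rescue or toxicity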
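Fission yeast strain RE007, carrying one chromosomally integrated HIV-1 vpr copy, was seeded at OD 0.01 in PMG+AL medium with 23 nL pinned compound. After 24 h at 30 °C and 99% humidity, viability was read by BacTiter-Glo luminescence.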
NS1 function inh – blocks influenza NS1 protein function | S. cerevisiae slowed by influenza A NS1, growth recovery by OD600 | Potency, µM (highest dose often 46.1 µM), inactives show at the top dose activity, positive = more growth | 0.4% of 270,000 active; active means well fitted rising curve with a large enough effect; inconclusive means small, poorly fitted or top-dose-only effect; inactive means no such curve, though single readings can be large or run the other way; also: nearly all actives have a fitted effect of over 50% in size
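In this qHTS, NS1 from influenza A is expressed in budding yeast, where it slows growth. Cells are switched from glucose to 2% galactose medium (pH 6.0, -URA), treated with compound, and growth recovery is read at OD600.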
Cruzain inh noDet – blocks cruzain activity in detergent-free assay. purified cruzain, Z-FR-AMC fluorescence, no detergent. Potency, µM, for inactives: max response, negative = inhibition, hits mostly inhibitors. P25779. 2.3% of 200,000 active;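 also: plate controls were enzyme without inhibitor for no effect and buffer without enzyme for full effect; nearly all actives have a fitted effect of over 40% in size; top concentration of the series not given in the record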
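Purified cruzain at 1.5 nM, pre-incubated 15 min with compound at room temperature in 100 mM sodium acetate pH 5.5, 5 mM DTT, 0.00005% Triton X-100. Reaction started with 2 uM Z-FR-AMC; AMC fluorescence increase over 60 s gives rate.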
Lassa entry inh – inhibitors of Lassa virus binding or cell entry; Lassa virus pseudotype entry inhibition, cell reporter; control for the full effect not named in the record; Potency, µM (top dose mostly 37.9 µM), without a hit: at the highest dose activity change, negative = inhibition, hits mostly inhibitors; 1.2% of 300,000 active; AID 540256; active means well fitted inhibition curve with a large enough effect; inconclusive means small, poorly fitted or top-dose-only effect, or effect the other way; inactive means flat fitted curve, though single readings scatter; tested in HEK293 cells; also: % is scaled to controls: 0 for no effect and ±100 for the full control effect; nearly all actives have a fitted effect of over 50% in size; luciferase read-out
Numbers without * were called inactive; ? = inconclusive; . = not tested or not shown; & = joins results of further samples; [ ] = remark or other dose. Unless noted, calls follow the shape of the dose curve; as a rule, active = well fitted curve in the direction sought with a large enough effect; inconclusive = small, poorly fitted or top-dose-only effect, or another doubt; inactive = no such curve, though single readings can be large; an effect the other way counts as inactive or inconclusive. Potency is read from the fitted curve at half-maximal effect.

molecule	SARS PLpro yeast	Cruzain Triton	Marburg entry inh	2A StopGo	RE007 growth inh	NS1 function inh	Cruzain inh noDet	Lassa entry inh
COc1cccc(NC(=O)C2CCCN2S(=O)(=O)c2ccc3nc(-c4ccccc4)[nH]c3c2)c1 (stereo unspecified)	.	-0.1%	.	?	.	.	3%	13%[46.1 µM]
CC(O)CCc1ccc(O)cc1 (stereo unspecified)	1%	.	0%	7%	32%	.	.	0%
C/C(=N\NC(=O)CNC(=O)c1ccc2c(c1)OCCO2)c1ccco1	0%	.	-16%	23%	-7%	1%	.	?
CCN(c1cccc(C(F)(F)F)c1)S(=O)(=O)c1ccc2c(c1)CCN2C(C)=O	5%	-3.3%	?	?	-2%	-36%	?	18µM*
COC1=CC(=O)OC(C)(c2ccccc2)C1 (stereo unspecified)	.	.	3%[46.1 µM]	20%	-3%	.	.	7%[46.1 µM]
COc1ccc(/C=C/C(=O)c2ccccc2)cc1Cn1nnc2ccccc21	12%	-5.3%	?	?	-3%	18%	-17%	-22%
COc1cccc(-n2c(SCC(=O)OC(C)C)nnc2-c2cccnc2)c1	-3%	-1.1%	-7%&-1%	.	-10%	-8%	10%	7%
COCCN(C(=O)Nc1ccc(OC)cc1OC)C1CCN(C(C)=O)CC1	5%	2.6%	2%	-10%	7%	3%	-8%	-2%

6 entries already listed, arranged by number of heavy atoms, high to low:
molecule	SARS PLpro yeast	Cruzain Triton	Marburg entry inh	2A StopGo	RE007 growth inh	NS1 function inh	Cruzain inh noDet	Lassa entry inh
COc1cccc(NC(=O)C2CCCN2S(=O)(=O)c2ccc3nc(-c4ccccc4)[nH]c3c2)c1 (stereo unspecified)	.	-0.1%	.	?	.	.	3%	13%[46.1 µM]
COc1ccc(/C=C/C(=O)c2ccccc2)cc1Cn1nnc2ccccc21	12%	-5.3%	?	?	-3%	18%	-17%	-22%
COc1cccc(-n2c(SCC(=O)OC(C)C)nnc2-c2cccnc2)c1	-3%	-1.1%	-7%&-1%	.	-10%	-8%	10%	7%
C/C(=N\NC(=O)CNC(=O)c1ccc2c(c1)OCCO2)c1ccco1	0%	.	-16%	23%	-7%	1%	.	?
COC1=CC(=O)OC(C)(c2ccccc2)C1 (stereo unspecified)	.	.	3%[46.1 µM]	20%	-3%	.	.	7%[46.1 µM]
CC(O)CCc1ccc(O)cc1 (stereo unspecified)	1%	.	0%	7%	32%	.	.	0%

Later entries.
molecule	SARS PLpro yeast	Cruzain Triton	Marburg entry inh	2A StopGo	RE007 growth inh	NS1 function inh	Cruzain inh noDet	Lassa entry inh
O=C(O)c1ccc(-c2ccc(/C=C3\NC(=O)N(Cc4ccc(Cl)cc4)C3=O)o2)cc1	0%	.	.	3%	-1%	6%	.	.
Cc1cc(C)c(Cn2c3ccccc3c3cnn(CC(=O)NCC(C)c4ccccc4)c(=O)c32)c(C)c1 (stereo unspecified)	.	-0.7%	?	-3%	.	.	-10%	-5%[46.1 µM]
Cc1nn(C)cc1/C=N/NC(=S)Nc1ccccc1	13%	-3.9%	7.3µM*	2%	0%	-5%	10%	-12%
O=C(O)CCC(=O)N1CCC[C@H]1C(=O)O	-1%	.	-12%	-9%	12%[18.4 µM]	6%	.	.
NNC(=O)c1oc2ccccc2c1-n1cccc1	-9%	.	?	-14%	7%	.	.	-22%
Cc1cc(C)n(NC(=S)NC2CCCCC2)c(=O)c1C#N	1%	.	.	-9%	-5%	-1%	.	.
Cc1ccc(C)c(C(=O)CCC(=O)O)c1	1%	.	.	10%	1%	12%	.	.
CCCCN1C(=O)NC(NC(=O)c2ccco2)(C(F)(F)F)C1=O (stereo unspecified)	1%	1.9%	9%	-12%	-2%	9%	4%	1%

molecule	SARS PLpro yeast	Cruzain Triton	Marburg entry inh	2A StopGo	RE007 growth inh	NS1 function inh	Cruzain inh noDet	Lassa entry inh
CCCCc1c(O)nc(SCCC(=O)O)[nH]c1=O	-11%	3.7%	.	.	.	10%	-6%	.
Cc1nn(C(=O)c2cccc([N+](=O)[O-])c2C)c(C)c1S(=O)(=O)N1CCCCCC1	.	-0.3%	.	-21%	.	.	-7%	0%[46.1 µM]
Cc1cccc(-n2cnc(C(=O)NC3CCCCCC3)c2)n1	-14%	1.6%	?	24%	-6%	-17%	3%	15%
S=C1NCN(Cc2ccco2)CN1c1ccccc1	-2%	.	-1%	11%	1%	-2%	.	?
COc1cccc(Oc2ccc3nnc(C(F)(F)F)n3n2)c1	-5%	.	-4%[46.1 µM]	4%	3%	.	.	11%[46.1 µM]
O=C1/C(=C/c2ccncc2)SC(=S)N1C1CCS(=O)(=O)C1 (stereo unspecified)	-11%	-5.8%	?	?	2%	-31%	-2%	-28%
Cc1ccc(S(=O)(=O)N2CCN(c3ncccn3)CC2)cc1C	.	.	?	-19%	5%	.	.	-17%[46.1 µM]
CC(=O)C1C(c2ccccc2)c2c(n[nH]c2C)CC1(C)O (stereo unspecified)	11%	1.1%	14%	-13%	5%	6%	-13%	0%

molecule	SARS PLpro yeast	Cruzain Triton	Marburg entry inh	2A StopGo	RE007 growth inh	NS1 function inh	Cruzain inh noDet	Lassa entry inh
O=[N+]([O-])c1ccc(C2NS(=O)(=O)N=C3CCCCCN32)cc1 (stereo unspecified)	-1%	.	.	-4%	-7%	-3%	.	.
CC1=C(C)CC(C(=O)Nc2cccc([N+](=O)[O-])c2)C(C(=O)O)C1 (stereo unspecified)	2%	-0.6%	1%	-15%	-1%	9%	-1%	3%
CCOCCCn1c(=S)[nH]c2cc(C(=O)N3CCC(C(N)=O)CC3)ccc2c1=O	4%	0.5%	11%	-10%	0%	-2%	0%	14%
CCOc1ccc(C(=O)Nc2cccc(C(=O)OCc3cc(=O)n4cc(C)sc4n3)c2)cc1	.	2.0%	.	9%	.	.	1%	10%[46.1 µM]
CCOc1ccc2nc(N3CCN(C(=O)CS(=O)(=O)c4ccc(F)cc4)CC3)sc2c1	.	-6.0%	.	?	.	.	6%	?
CCCCCCC1CCC(C(=O)NC(CCSC)C(=O)NC(C(=O)OC)C(C)C)CC1 (stereo unspecified)	-1%	0.0%	?	3%	-17%	7%	?	-29%
CC1CCN(c2ccccc2NC(=S)NC(=O)C(C)(C)C)CC1	0%	.	?	14%	23%	.	.	?
Cc1cccc(/C=N/NC(=O)c2ccc(F)cc2)n1	0%	.	.	35%[activator]	-2%	-8%	.	.

Screens in order – SARS PLpro yeast, Cruzain Triton, Marburg entry inh, 2A StopGo, RE007 growth inh, NS1 function inh, Cruzain inh noDet, Lassa entry inh
- CC(/C=C/C1(O)C(C)CC(O)CC1(C)C)OC1OC(CO)C(O)C(O)C1O (stereo unspecified)
→ 11%, ., ., -1%, 7%, 9%, ., .
- COc1ccc(NC(=O)CSc2ccccc2)c(OC)c1
→ 30%, -5.9%, -2%, 75%[activator], -6%, -8%, -6%, ?
- Cc1cccc(C(=O)NNc2ncnc3c2cnn3C)c1
→ 4%, ., -2%[46.1 µM], 7%, 8%, ., ., 12%
- Cc1noc(C)c1S(=O)(=O)N1CCC(C(=O)Nc2ccccn2)CC1
→ ., 11%, 8%[46.1 µM], -9%, 26%, -1%, -4%, 1%
- CCn1c(=O)c2cc(C(=O)NC(C)C)sc2c2ccccc21
→ 2%, ., ., -15%, 4%, -10%, ., .
- CCC(C)c1ccc(NC(=S)NCc2ccccc2OC)cc1 (stereo unspecified)
→ -4%, ., ?, 18%, -2%, -47%, ., ?
- Cc1cccc(NC(=O)CCS(=O)(=O)c2cc3c(cc2Cl)NC(=O)CO3)c1
→ -1%, ., ., -20%, 4%, 16%, ., .
- CC(=O)Nc1ccc(C(=O)N/C(=C/c2ccccc2)C(=O)NCc2ccco2)cc1
→ 4%, ., 26%[46.1 µM], ?, -1%, -3%, ., -20%
- CC(OC(=O)C1CCN(S(=O)(=O)c2ccc(F)cc2)CC1)C(=O)NC1CCCCC1C (stereo unspecified)
→ ., ., 9%, -12%, 32%, ., ., 13%
- COCCC(=O)N1CCC(Oc2ccc(C(=O)NCc3nccn3C)cc2)CC1
→ 1%, ., 17%, -7%, 2%, -1%, ., 5%

Screens in order – SARS PLpro yeast, Cruzain Triton, Marburg entry inh, 2A StopGo, RE007 growth inh, NS1 function inh, Cruzain inh noDet, Lassa entry inh
- NC(=O)c1ccc(Oc2ccc(-c3nnco3)cc2)c([N+](=O)[O-])c1
→ 4%, ., -13%[46.1 µM], -6%, -4%, 10%, ., 6%
- Cc1ccc(CSCC(=O)N(C)CC(=O)Nc2c(Cl)cccc2Cl)cc1
→ -3%, ., 13%, ?, -1%, ., ., -21%
- COC(=O)c1scc(C)c1NC(=O)Nc1ccccc1
→ -1%, 0.5%, -3%[46.1 µM], -13%, -3%, -12%, -5%, 1%
- Cc1cccc(/C=C2\Sc3ccc(C(=O)N4CCC(C)CC4)cc3N(C)C2=O)c1
→ -5%, ., -43%[46.1 µM], -22%, -12%, 27%, ., -25%[46.1 µM]
- O=C(Nc1cccnc1)c1ccc(F)c(S(=O)(=O)N2CCOCC2)c1
→ 0%, ., 1%[46.1 µM], -11%, 6%, 4%, ., -6%
- Cc1cccc(NC(=S)NNC(=O)CC(C)O)c1C (stereo unspecified)
→ 5%, 9.5%, 15%, 8%, 5%, 8%, 8%, 11%
